# Bioassay records (PubChem BioAssay)
# NPYLR7 ag: mosquito NPYLR7 agonism; HEK293T NPYLR7/Galpha15, GCaMP6s calcium fluorescence; activation, % at 10 µM; actives 0.15% (n = 270,000); in the data active = activation above about 40%;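 note: 0% = vehicle and 100% = reference agonist at the receptor; some compounds past the cut are filed as inactive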
# NPYLR7 ag max-min: recorded beside NPYLR7 ag, whose call it bears; activation, %; measured here: Max-Min RFU normalised activation; some inactives read as strong as hits;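 span of the calcium signal over five minutes; 0% = vehicle and 100% = native peptide agonist; compound fluorescence can raise it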
# * marks the source's active call; other numbers are inactive results; & = joins results of further samples.
SMILES,NPYLR7 ag,NPYLR7 ag max-min
CSCCC(NC(=O)c1ccc(C)cc1)c1nnc2ccccn12 (centres undefined),2,8
CCCNC(=O)Cn1nc2c(c1NC(=O)c1ccc(C(C)(C)C)cc1)CSC2,-4,-7
Clc1cc(CCNc2nnnn2-c2ccccc2)cc2c1OCCO2,4,3
CC1CC(=O)NCCN1c1ccc(S(=O)(=O)C(F)(F)F)cc1 (centres undefined),0,-2
COc1cc(Cl)c(C(=O)N2CCOC(COc3ccccc3OC)C2)cc1OC (centres undefined),26,29
CCS(=O)(=O)NC(=O)C1(C)CCN1C(=O)Cc1ccc(Cl)cc1Cl (centres undefined),-1,-5
O=C(NNS(=O)(=O)c1cccc(Br)c1)c1cc2c(s1)CCCCC2,3,3
COc1cc(OC)cc(C(=O)N2CCN(c3cc(C)nc(-c4cccc(F)c4)n3)CC2)c1,0,10
O=C(O)C(O)c1ccc(-c2cccc3cnccc23)cc1 (centres undefined),8,6
N#Cc1c2c(c(NCCOCCO)n3c1nc1ccccc13)CCCC2,7,4
O=C(C1CCC(=O)N(C2CC2)C1)N1CCC(O)(c2cccc(C(F)(F)F)c2)CC1 (centres undefined),11,6
c1cnn(-c2cc(N3CCC(n4cc(-c5ccsc5)nn4)CC3)ncn2)c1,-3,-3
CCCCCCCCCCCCCC(=O)N1CCSC1c1ccc2c(c1)OCO2 (centres undefined),24,31
COc1cccc(-c2cc(C(=O)N3CCC(C(N)=O)CC3)n(-c3cccc(C)c3)n2)c1,-5,1
CC1=NN(C(=O)CCc2ccccc2)C(O)(c2cccnc2)C1 (centres undefined),15,6
COCCN(Cc1cccc(F)c1)Cc1ccc(C(O)(c2ccc(OC)cc2)c2ccc(OC)cc2)o1,8,10
CCc1[nH]c2c(CNC(=O)Cc3ccccc3O)cc(C)cc2c1C,7,4
C#CCn1cnc2c(nnn2-c2ccc(C)c(C)c2)c1=O,1,-7
O=[N+]([O-])c1ccc(Cl)c(C=NN2CCN(Cc3cccc4ccccc34)CC2)c1,-7,-12
Cc1ccc(Cn2c(CN3CCCCC3C)nc3c2c(=O)n(C)c(=O)n3C)cc1 (centres undefined),5,1

# As entered above.
# Entry of C#CCn1cnc2c(nnn2-c2ccc(C)c(C)c2)c1=O under NPYLR7 ag: 1
# Entry of CSCCC(NC(=O)c1ccc(C)cc1)c1nnc2ccccn12 (centres undefined) under NPYLR7 ag max-min: 8
# Entry of CC1=NN(C(=O)CCc2ccccc2)C(O)(c2cccnc2)C1 (centres undefined) under NPYLR7 ag max-min: 6

# Carrying on:
SMILES,NPYLR7 ag,NPYLR7 ag max-min
C=CCNC(=O)c1c(O)nc2c(C)cccn2c1=O,-1,7
C#CCOCC(O)CN(CCC(C)C)Cc1ccccc1OC (centres undefined),15,19
Cc1oc(-c2ccc(C(F)(F)F)cc2)nc1CN1CCN(c2ccccc2)C(=O)C1,3,0
O=C(Nc1c(F)cc(F)cc1Br)c1cc2nc(-c3ccc(F)cc3)cc(C(F)(F)F)n2n1,-4,-7
Cc1ccc(C(=O)NC2CCCC(OCC(F)(F)F)C2)c(=O)[nH]1 (centres undefined),0,3
O=C(NC1CC1)c1c(NC(=O)C23CC4CC(CC(C4)C2)C3)sc2c1CCCC2,1,-2
Cc1ccccc1C(=O)N[C@@H]1CCCCC1NC(=O)C1CCN(S(=O)(=O)C[C@]23CCC(CC2=O)C3(C)C)CC1 (some centres undefined),5,13
O=C(c1ccco1)N1CCN(C(c2ccccc2)c2ccc(Cl)cc2)CC1 (centres undefined),8,0
C=CCN(CC(=O)N1CCc2sccc2C1COc1cccc(F)c1)C(=O)c1cccc(Cl)c1 (centres undefined),-1,6
COc1cccc(-n2c(-c3ccc(Cl)cc3)cc(C(=O)NCc3ccco3)c2C)c1,1,9
CCCc1nc(NCCSCC)c2cnn(C)c2n1,-5,-8
CCc1nc(NC(=O)CCc2ccc3c(c2)OCO3)n[nH]1,-1,-1
COc1ccc(NC(=O)CSc2nc(=O)n(CCO)c3c2CCC3)c(OC)c1,-5,-15
CCNC(=O)N1CCc2nc(-c3ccccc3)nc(N3CCCC3)c2C1,5,15
CCOC(=O)C1CCCN(C(=O)c2ccc(CSc3nc(Cl)cc(N4CCC5(CC4)OCCO5)n3)cc2)C1 (centres undefined),-14,-16
Cc1ccc(-c2noc(CN3CCc4sccc4C3)n2)cc1,8,4
Cc1ccc(OCC(=O)NCCc2ccc3c(c2)OCO3)c(C)c1,-1,-1
Cc1ccc(/C=C/S(=O)(=O)NCCCn2nc(-c3ccco3)ccc2=O)cc1,2,-1
CC(C)c1ccccc1OC1CC2CCC(C1)N2C(=O)c1ccc(CSc2ccc(Cl)cc2Cl)cc1 (centres undefined),14,12
CCCC(=O)N1CCC1(C)C(=O)Nc1cccc(OC(C)C)c1 (centres undefined),4,0
O=C(NN=Cc1ccco1)c1cccc(C(=O)NN=Cc2ccco2)c1,-1,-4
Cc1cc(N(C)CC2COCCO2)nc(-c2cccnc2)n1 (centres undefined),1,-1
Cc1onc(-c2ccccc2)c1C(=O)NC1CCCc2c1cnn2-c1ccc(F)cc1F (centres undefined),15&13,6&4
Cc1cc(C)n(-c2ccc(C(=O)N(C)CC(O)CO)cc2)n1 (centres undefined),18,11
COc1ccc(C(=O)N[C@@H]2CCCCC2NC(=O)C2CCCN(C(=O)C(Cl)c3ccccc3)C2)cc1 (some centres undefined),20,16
COc1ccc(C)cc1COC(=O)c1cc(S(N)(=O)=O)ccc1Cl,-1,-1
NCCc1nc(N(Cc2ccccn2)CC2CCCO2)c2ccccc2n1 (centres undefined),4,2
COc1ccc(CN2CCN(c3cc(Oc4ccc(F)c(F)c4)ncn3)CC2)cc1,10,12
N#Cc1ccc(CS(=O)(=O)N2CCN(Cc3ccc4c(c3)CCO4)CC2)cc1,11,4
O=C(OCC(=O)N(C1CC1)C1CCS(=O)(=O)C1)c1ccc2c(c1)OCO2 (centres undefined),6,0
CCOC(=O)c1cnc(N2CCNCC2)s1,-2,-3
CCOC(=O)C12CC1/C(=N\O)c1ccccc1O2 (centres undefined),4,-3
Cc1nn(CC(=O)Nc2sc3c(c2C#N)CCC(C)C3)c(C)c1[N+](=O)[O-] (centres undefined),0,-5
COc1ccc(CCNC(=O)c2csc(CSc3nnc(-c4cccnc4)n3-c3cccc(C(F)(F)F)c3)n2)cc1OC,12,7
CCn1ncc(C(=O)NCCc2nccc(-c3ccccc3)n2)c1C,15&8,11&5
Cn1cc(S(=O)(=O)NC(=O)CCc2cccc(F)c2F)cn1,-4,-3
Cc1sc2ncnc(NCC3CCN(c4cnn(C)c(=O)c4)C3)c2c1C (centres undefined),6,3
O=C(N(Cc1ccc(F)cc1)C1CC1)C12CC3CC(CC(Cl)(C3)C1)C2,-2,-1
Cc1ccc(-n2nc(C(=O)NCC3CCCO3)c(=O)n(Cc3ccc(F)cc3)c2=O)cc1Cl (centres undefined),-3,2
Cc1cc(C2CCCN2C(=O)C(C)n2ccnc2)on1 (centres undefined),10,2

# Reprinted at random: 2 records from the list
SMILES,NPYLR7 ag,NPYLR7 ag max-min
CCn1ncc(C(=O)NCCc2nccc(-c3ccccc3)n2)c1C,15&8,11&5
O=C(N(Cc1ccc(F)cc1)C1CC1)C12CC3CC(CC(Cl)(C3)C1)C2,-2,-1

# More compounds
SMILES,NPYLR7 ag,NPYLR7 ag max-min
Cc1cccc(Cn2ccnc2CN(C(=O)c2ccccc2F)C2CCCCC2)c1,-28,-25
O=C1CCN(CC(O)C(F)(F)F)c2ccccc2CN1CC1CC1 (centres undefined),3,5
C=CCOc1cccc(-n2c(C)cn3c4c(=O)n(C)c(=O)n(C)c4nc23)c1,-3,-7
CC(C)CN1C(=O)N(C)C2(CCN(Cc3cc(CN4CCCC4)cs3)CC2)C1=O,11,-1
COc1ccccc1-n1c(SCc2ccc(C(=O)O)cc2)nnc1-c1cccs1,1,-3
COc1cccc(CN(C)Cc2c(C)noc2C)c1O,-5,-3
Cc1nc2ccc(Br)cc2c2c1C(=O)N(C1CCN(Cc3cccnc3)C1)C2=O (centres undefined),0,-2
C=CCOCC(O)CN(Cc1cccc(F)c1)CC1CC(c2ccccc2Cl)=NO1 (centres undefined),2,4
O=C(NCCCn1ccnc1)[C@@]1(OCc2ccccc2F)CC(OCc2cccc(C(F)(F)F)c2)[C@H](O)[C@H](O)C1 (some centres undefined),6,12
Cc1cc(CNC(=O)Nc2ccccc2C(C)(C)C)on1,6,4
CCCC(O)CN1CCc2nc(Cc3cccc(F)c3)[nH]c(=O)c2C1 (centres undefined),-7,-6
O=C(c1ccc(Cl)nc1)N1CCC(c2nc(-c3ccncc3)no2)CC1,5,16
O=S(=O)(NCCc1ccco1)c1c(F)cccc1F,6&-3,3&-1
Clc1ccc(C=Nc2ccc3ncccc3c2)c(Cl)c1,-6,-12
O=[N+]([O-])c1cc2c(c(CSc3nnc(-c4ccco4)o3)c1)OCOC2,1,6
C=CCNC(=O)NC1CC(C)(C)Cc2nc(N3CCOCC3)ncc21 (centres undefined),9,14
Cc1ccc(NC(=O)CSc2ncc(S(=O)(=O)c3cccc(C(F)(F)F)c3)c(=O)[nH]2)cc1C,0,-10
COc1cc(N=Cc2nc(-c3ccccc3Br)oc2O)c(C(=O)O)cc1OC,-5,-8
CCOC(=O)CCc1c(C)nc2ncnn2c1N1CCN(C(=O)C=C(C)C)CC1,25,14
CNc1nc(C(=O)N2CCCC(O)(CO)C2)cs1 (centres undefined),10,1

# Three compounds already listed, ordered by SMILES length, lowest first:
SMILES,NPYLR7 ag,NPYLR7 ag max-min
CCCC(O)CN1CCc2nc(Cc3cccc(F)c3)[nH]c(=O)c2C1 (centres undefined),-7,-6
O=[N+]([O-])c1cc2c(c(CSc3nnc(-c4ccco4)o3)c1)OCOC2,1,6
Cc1ccc(NC(=O)CSc2ncc(S(=O)(=O)c3cccc(C(F)(F)F)c3)c(=O)[nH]2)cc1C,0,-10

# More records
SMILES,NPYLR7 ag,NPYLR7 ag max-min
CCOC(=O)C1=C(C)N=c2s/c(=C\c3ccncc3)c(=O)n2C1c1ccc(OC)cc1 (centres undefined),-5,-5
O=C(O)c1ccc(=O)n(Cc2cccc(C(F)(F)F)c2)c1,-2,-3
CCCCn1nccc1NC(=O)CSc1nccs1,6,5
CCOC(=O)C1C(=O)C=C(c2ccc(F)cc2)CC1c1cccc(OC)c1OC (centres undefined),0,2
CS(=O)(=O)CCNC(=O)c1ccc(-c2nc3ccccc3s2)o1,6,6
COc1cc2c(cc1CN1CCN(Cc3ncccc3C)CC1)OCO2,7,-4
COc1ccccc1-c1csc2nc(CN3CCOCC3)[nH]c(=O)c12,-3,-5
O=C(OCC(=O)N1CCCCC1)c1cc(=O)[nH]c(=O)[nH]1,4,3
O=C(c1n[nH]c2c1CCC2)N1CCCC(c2[nH]ncc2Cc2ccccc2)C1 (centres undefined),2,2
CCCc1cc(C(=O)Nc2nnc(CC)s2)sc1C,4,3
O=c1c(-c2ccccc2)c1-c1ccccc1,8&-11,3&-17
COC(=O)c1ccc(C(=O)N2CCCCCC2(C)C(=O)NC(C)C)cc1 (centres undefined),-3,-3
CN(C)c1ccc(NC(=O)CC(C)(C)C)cc1C(=O)NCc1ccccc1,-8,-5
O=C(NCCn1nc(-c2ccco2)ccc1=O)c1ccc(-c2ccccc2)cc1,-3,-5
COC(=O)[C@@H]1CCCN1C(=O)c1c(OC)cc(=O)n2c1CCN(C(=O)C#Cc1ccccc1)CC2,18,4
CCOC(=O)C1CCCN(CC(=O)N2N=C(c3cccc(OC)c3)CC2c2cc(C)ccc2C)C1 (centres undefined),18,15
CC(C)C1CCc2ccccc2N1C(=O)c1ccoc1 (centres undefined),-4,-10
CC1=C(C(=O)OCc2ccco2)C(c2cccc([N+](=O)[O-])c2)NC(=O)N1 (centres undefined),3,-2
Cc1ccc(-n2cc(C(=O)N3CCN(CC4COCCO4)CC3)c(C(C)(C)C)n2)cc1 (centres undefined),8,3
CCOCCn1c(=O)c2c(nc3n(-c4ccc(OCC)cc4)c(C)c(C)n23)n(C)c1=O,3,0
CC(=O)N(CN1C(=O)c2ccc(Br)cc2C1=O)c1cccc(C(=O)O)c1,-13,-17
O=C(O)c1cc2n(n1)CCN(C(=O)c1ccc(Oc3ccccc3)o1)C2,-4,-8
CS(=O)(=O)N1CCCCCC1,6,3
CCCC(NC(=O)NCc1c(C)noc1C)c1cccs1 (centres undefined),15,9
Cc1noc(-c2ccc(C(C)(C)C)cc2)c1C(=O)NCc1ccncc1,5,14
COc1ccc(C(CC(=O)NCc2ccccc2)Sc2n[nH]c(-c3ccc(F)cc3)n2)cc1 (centres undefined),-7,-1
CC(C)(C)NC(=O)c1ccc2c(c1[N+](=O)[O-])C(=O)c1ccccc1C2=O,-4,-9
COC(=O)Cn1c(=O)c2c(nc3n(C(C)C)c(C)cn23)n(C)c1=O,-2,5
CC1(C)Cc2ccccc2C(C[N+](=O)[O-])=N1,1,2
O=C(NCc1ccncc1)c1cc(=O)c(OCc2ccccc2)co1,1,-3
CCOC(=O)C1=C(C)Nc2nc(SCC(C)C)[nH]c(=O)c2C1c1ccc(C(=O)OC)cc1 (centres undefined),2,-1
CC(=O)c1cccc(CN2CCC(C(=O)Nc3ccc(Oc4ccccc4F)cc3)CC2)c1,1,-2
C[C@H](C(=O)Nc1cccc(N(C)C)c1)N1Cc2ccc(-c3ccnn3C)nc2C1=O,-14,-15
COC(=O)c1ccc(NC(=O)CSc2nc(=O)n(CCN3CCOCC3)c3c2CCC3)cc1,-1,-5

# Some of the entries above, set out differently.
Structure | NPYLR7 ag | NPYLR7 ag max-min
CCOC(=O)C1=C(C)Nc2nc(SCC(C)C)[nH]c(=O)c2C1c1ccc(C(=O)OC)cc1 (centres undefined) | 2 | -1
CC(=O)c1cccc(CN2CCC(C(=O)Nc3ccc(Oc4ccccc4F)cc3)CC2)c1 | 1 | -2
C[C@H](C(=O)Nc1cccc(N(C)C)c1)N1Cc2ccc(-c3ccnn3C)nc2C1=O | -14 | -15

# These rows are one share of the data. The share of hits here may be higher or lower than overall.
